VDR inh – Inhibitors of the vitamin D receptor (VDR): qHTS; Vitamin D3 receptor (Homo sapiens), P11473; VDR-SRC2-3 peptide fluorescence polarization, 2 h; Potency, µM, for inactives: max response, negative = inhibition, most hits filed as inhibitors; 400,000 tested, 0.93% active; active = well fitted inhibition curve with a large enough effect; inconclusive = small, poorly fitted or top-dose-only effect, or another doubt; inactive = no such curve, though single readings can be large or run the other way; also: series mostly up to about 120 µM
Target sequence (P11473 whole entry, looked up): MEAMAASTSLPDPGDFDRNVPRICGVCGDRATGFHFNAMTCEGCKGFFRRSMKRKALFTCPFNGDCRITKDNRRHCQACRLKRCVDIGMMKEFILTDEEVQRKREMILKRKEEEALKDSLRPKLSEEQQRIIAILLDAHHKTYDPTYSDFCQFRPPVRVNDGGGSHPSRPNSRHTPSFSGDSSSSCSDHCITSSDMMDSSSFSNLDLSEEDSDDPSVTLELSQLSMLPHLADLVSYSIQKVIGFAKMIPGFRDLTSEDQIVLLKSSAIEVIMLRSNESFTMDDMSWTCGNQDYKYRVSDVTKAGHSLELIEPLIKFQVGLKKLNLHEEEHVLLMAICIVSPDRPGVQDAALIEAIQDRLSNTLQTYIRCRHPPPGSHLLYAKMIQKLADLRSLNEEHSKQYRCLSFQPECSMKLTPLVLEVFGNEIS
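Compounds are added to VDR with labelled SRC2-3 coactivator peptide and held 2 h at room temperature. Inhibition of the VDR–peptide interaction is then read as a change in fluorescence polarization.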
* = called active by the depositor; ? = inconclusive; & = joins results of further samples. % is scaled to controls: 0 for no effect and ±100 for the full control effect; potency is read from the fitted curve at half-maximal effect. Not all compounds are listed. The share of hits here may be higher or lower than overall.

structure | VDR inh
CC(Oc1ccccc1F)C(=O)NNC(=O)C1CC(=O)N(c2ccc3c(c2)OCCO3)C1 (stereo unspecified) | 9%
CCOC(=O)c1nnn(-c2nonc2-c2ccccc2)c1C | 9%
COC(=O)c1ccc(COC(=O)c2cnc(Cl)c(Cl)c2)cc1 | -12%
Cc1ccc(S(=O)(=O)N2CCN(C(=O)c3cccc(-n4cccc4)c3)CC2)cc1 | 10%
COc1ccc(-n2nc(C(=O)NCC(=O)N3CCCCCC3)c3ccccc3c2=O)c(OC)c1 | 13%
NC(=O)N=Nc1c2[nH]c3ccccc3nc-2c2ccccc12 | -7%
CCCCNC(=O)CCSc1ccc(C)cc1 | -4%
CC(=O)Nc1cccc(NC(=O)Cc2cccs2)c1 | -21%
CC(C)(C)CC(C)(C)Nc1c(-c2ccc(O)cc2)nc2cnccn12 | 1%
Cc1cc(C)n2c(Br)c(CSc3nc4ccccc4o3)nc2n1 | -7%
Cc1cccc2sc(N(Cc3cccnc3)C(=O)C3COc4ccccc4O3)nc12 (stereo unspecified) | 20%
COc1ccc(CNC(=O)Cc2cccs2)cc1OC | 5%
CCOc1ccc(/C=N/OCC(=O)NCc2ccco2)cc1 | ?
O=C(CCC1N=C2c3ccccc3N=C(SCC(=O)NCc3ccco3)N2C1=O)NCc1ccco1 (stereo unspecified) | -8%
O=C(CCCn1nnc2ccccc2c1=O)N[C@H](C(=O)O)c1ccccc1 | -2%
Cc1ccc(C(=O)N2CC(=O)Nc3ccc(F)cc3C2c2ccc(F)cc2)cc1[N+](=O)[O-] (stereo unspecified) | 6%
COC(=O)c1ccc(NC(=O)CN2C(=O)C3C4C=CC(C4)C3C2=O)cc1 (stereo unspecified) | 5%
COc1cc(Br)cc(CNc2ccc(F)c([N+](=O)[O-])c2)c1O | 20%
CC(NC(=O)Nc1ccccc1O)(C(F)(F)F)C(F)(F)F | 10%
Cc1ccc(CNC(=O)CN2C(=O)NC3(CC(C)CC(C)(C)C3)C2=O)cc1 (stereo unspecified) | 24%
CCOC(=O)/C(=C/c1ccc(OC(=O)c2ccncc2)cc1)C(C)=O | ?
CC(=O)C1CCC2C(CCC3=CC(=O)CCC32)C1 (stereo unspecified) | 12%
Cc1[nH]n(-c2ccc([N+](=O)[O-])cc2)c(=O)c1C=NCCN1CCN(C(=O)c2ccccc2)CC1 | -11%
COc1cc(CNC(=O)CCCC/C=C/C(C)C)ccc1O | -20%&-9%
CC(=O)c1cccc(NC(=O)CSc2nnc3ccc(-c4ccc(Cl)cc4)nn23)c1 | ?
O=C(Nc1cccc(F)c1)N1CC[C@@]2(CCCN(C(=O)c3cccc(F)c3)C2)C1 | 3%
CC(C)C(=O)Nc1ccc(C(=O)Nc2ccc(Br)cc2F)cc1 | 18%
CCOC(=O)C1CCCN(C(=O)c2ccc(CS(=O)(=O)c3ccc(Br)cc3)o2)C1 (stereo unspecified) | -10%
Cn1c(=O)n(C)c2cc(S(=O)(=O)N3CCN(c4ccccc4)CC3)ccc21 | -3%
CCCC(=O)N(Cc1cc2cccc(C)c2[nH]c1=O)c1ccccc1OC | -1%
CC(NC(=O)COC(=O)Cc1ccsc1)C1CC2CCC1C2 (stereo unspecified) | 7%
COc1cc(C(=O)Oc2ccc(Br)cc2C(=S)N2CCOCC2)cc(OC)c1OC | ?
Cc1[nH]c(=O)c(C#N)c2c1COC(C)(C)C2 | -15%
COc1ccc(S(=O)(=O)NCC(c2cccnc2)N2CCN(Cc3ccccc3)CC2)cc1C (stereo unspecified) | -9%
CCCCCCCCCCCC(=O)NC(C(=O)O)C(O)c1ccccc1 (stereo unspecified) | -5%
Cc1ccc(S(=O)(=O)N2CCCCC2)cc1C(=O)N1CCCC1 | -11%
O=[N+]([O-])c1cc(C(F)(F)F)ccc1N1CCC(O)CC1 | 5%
Cc1c(C(=O)N(Cc2ccco2)Cc2ccccc2Cl)oc2ccc(F)cc12 | 0%
CCCCOc1ccc(C(C)NC(=O)CCS(=O)(=O)Cc2ccc(C)cc2)cc1 (stereo unspecified) | 13%
Cc1ccc(Cl)cc1N1CCN(C(=O)Cc2ccc(-n3c(=O)[nH]c4ccsc4c3=O)cc2)CC1 | 4%
O=C(CSc1nnc(-c2ccccc2)o1)NC1CCCCC1 | 10%
Cc1ccccc1Cn1c(=O)c2c(nc3n2CCN3Cc2ccco2)n(C)c1=O | 13%
COc1ccc(C2CC(=O)C3=C(C2)NC(C)=C(C(=O)Nc2ccccc2C)C3c2coc3ccc(C)cc3c2=O)cc1OC (stereo unspecified) | 3%
Cc1cc(C)n(C(=O)c2ccc(C)o2)n1 | -13%
CCCN(CCC)c1ncnc2c1cnn2-c1ccc(OC)cc1 | 11%
CCCCNc1nc2c(S(=O)(=O)c3ccccc3)nnn2c2ccccc12 | 0%
COC(=O)CSc1nnc(SCc2ccc(OC)cc2)s1 | 12%
C=CCn1c(SC(C)C(=O)NCCC2=CCCCC2)nc2ccccc2c1=O (stereo unspecified) | -10%
CCN(CC)S(=O)(=O)c1ccc(-c2nnc(SCc3nnc(-c4ccc(C)cc4)o3)n2CC)cc1 | 6%
CCOC(=O)C1=C(N)Oc2cc(O)ccc2C1c1cccnc1 (stereo unspecified) | -14%

Going on with the list.
structure | VDR inh
CCOc1ccc2nc(NC(=O)c3cc([N+](=O)[O-])ccc3N3CCOCC3)sc2c1 | 3%
CN(C)c1cccc(C(=O)NCC2CCCO2)c1 (stereo unspecified) | 0%
CCn1cc(C(=O)NC2CCCCC2C)c(=O)c2ccc(C)nc21 (stereo unspecified) | 8%
COc1ccc(OC)c(NC(=O)c2c3c(nc4ccccc24)CCC3)c1 | 11%
O=C(CN1CCOCC1)NCc1ccccc1 | 9%
CNC(=S)N=Nc1c(O)[nH]c2ccc(C(C)C)cc12 | -9%
Cc1ccc(SCC(=O)NCc2ccncc2)cc1 | 3%
CC(=O)N1CCC(N(Cc2ccc(C)o2)C(=O)Nc2ccc(C)cc2)CC1 | -1%
CSc1ccccc1NC(=O)c1cc(Cl)sc1Cl | -14%
O=C(COC(=O)c1cc([N+](=O)[O-])ccc1NCCO)Nc1cccc(S(=O)(=O)N2CCCC2)c1 | 4%
CCOc1ccccc1NC(=S)N1CCN(c2nc(-c3ccc(F)cc3)cs2)CC1 | -18%
Cc1cc2nc(C(F)(F)F)cc(-c3cccs3)n2n1 | -11%
CS(=O)(=O)N(CC(=O)NCC1CCCO1)c1ccc(Cl)c(Cl)c1 (stereo unspecified) | 0%
Cc1cccc(NC(=S)NC23CN4CN(CN(C4)C2)C3)c1C | -14%
CC(NS(=O)(=O)c1ccccc1)C(c1cccs1)N1CCN(C)CC1 (stereo unspecified) | 11%
Cn1c(=S)ccc2ccccc21 | -26%
Cc1cnc(C(=O)Nc2nnc(C)s2)cn1 | -16%
COC(=O)C1=C(C)N(c2ccc(Br)cc2)C(=O)/C1=C\c1ccco1 | -1%
O=C(Cc1n[nH]c(=O)c2ccccc12)OCC(=O)c1ccc(F)c(F)c1 | -5%
OCCC1CN(CCCc2ccccc2)CCN1Cc1ccc(F)cc1 (stereo unspecified) | -3%
COC(=O)c1ccc(CSc2nnc(C)s2)cc1 | -22%
CC(C)CCSc1nc2c(c(=O)[nH]c(=O)n2C)n1CCCc1ccccc1 | -10%
Cc1ccc(C)c(NC(=O)C2CCN(S(=O)(=O)c3ccc4c(c3)NC(=O)CO4)CC2)c1 | -7%
COc1ccc(S(=O)(=O)N(CC(=O)NC2CC2)c2ccc(C)cc2)cc1 | 12%
CCCCNC(=O)OCCNC(=O)NC | -4%

Part of the list above, with values ahead of the structure.
VDR inh | Molecule
3% | COc1ccc(C2CC(=O)C3=C(C2)NC(C)=C(C(=O)Nc2ccccc2C)C3c2coc3ccc(C)cc3c2=O)cc1OC (stereo unspecified)
13% | Cc1ccccc1Cn1c(=O)c2c(nc3n2CCN3Cc2ccco2)n(C)c1=O

Next part.
Molecule	VDR inh
O=C(NNC(=O)c1ccccc1-n1cccc1)c1ccc(Cl)cc1	4%
N#Cc1ccccc1Cn1cc(/C=N/Nc2ccc([N+](=O)[O-])cn2)c2ccccc21	9%
CCOC(=O)C1CCCN(Cc2cccc(Oc3ccccc3)c2)C1 (stereo unspecified)	2%
COC(=O)c1ccccc1NC(=O)CN(C)Cc1ccccc1	-26%
CCCc1sc(N)nc1-c1ccc(C)cc1	1%
O=C(Nc1ccc(Br)cc1F)C1CCN(c2nnc(-n3cccc3)s2)CC1	1%
O=C(Nc1ccc(OC(F)(F)F)cc1)N1CCN(c2ccnc3cc(Cl)ccc23)CC1	-5%
N#CC1=C(SCC(=O)NC2CC2)NC(=O)C(C#N)C12CCCCC2 (stereo unspecified)	-3%
COc1ccc(OC)c(N/C=C/C(=C(C#N)C#N)N(C)C)c1	-19%
Nc1ccc(C(=O)N/N=C/c2sc(N3CCOCC3)nc2-c2ccccc2)cc1	-4%

Structures shown so far that have a cyano group (four):
Molecule	VDR inh
Cc1[nH]c(=O)c(C#N)c2c1COC(C)(C)C2	-15%
N#Cc1ccccc1Cn1cc(/C=N/Nc2ccc([N+](=O)[O-])cn2)c2ccccc21	9%
N#CC1=C(SCC(=O)NC2CC2)NC(=O)C(C#N)C12CCCCC2 (stereo unspecified)	-3%
COc1ccc(OC)c(N/C=C/C(=C(C#N)C#N)N(C)C)c1	-19%

Further records follow:
Molecule	VDR inh
COc1cc(/C=C2\SC(=O)N(CC(=O)Nc3cccc(C)c3)C2=O)cc([N+](=O)[O-])c1O	71µM*
Cc1cc(C)c2c(CN3CCN(Cc4ccccc4)CC3)cc(=O)oc2c1C	-3%
COc1ccc(CCNC(=O)COC(=O)c2cc3ccccc3oc2=O)cc1OC	-19%
CC(C)C1CCC(C(=O)NC(Cc2ccccc2)C(=O)O)CC1 (stereo unspecified)	?
CCOc1ccc(-c2csc(NC(=O)CSC3=NC(=O)CN3C(C)=O)n2)c2ccccc12	-24%
CCOc1cc(/C=N/NC(=O)CSc2nncn2C)ccc1OCc1cccc(C)c1	-4%
O=c1[nH]c(=S)[nH]cc1Oc1ccc(Cl)cc1	-10%
O=C(Nc1cccc(S(=O)(=O)NC2=NCCC2)c1)c1cnc(Cl)c(Cl)c1	17%
C/C(CC1(O)C(=O)N(C)c2ccccc21)=N\O (stereo unspecified)	10%
O=C(NNC(=O)c1cc(OCC(F)(F)F)ccc1OCC(F)(F)F)c1cccc(C(F)(F)F)c1	1%

Part of the list above in order of molecular weight, highest first:
Molecule	VDR inh
CCOc1ccc(-c2csc(NC(=O)CSC3=NC(=O)CN3C(C)=O)n2)c2ccccc12	-24%
COc1ccc(CCNC(=O)COC(=O)c2cc3ccccc3oc2=O)cc1OC	-19%
CC(C)C1CCC(C(=O)NC(Cc2ccccc2)C(=O)O)CC1 (stereo unspecified)	?

(more compounds)
Molecule	VDR inh
O=C(CC1NCCN(Cc2ccccc2)C1=O)Nc1ccccc1 (stereo unspecified)	-19%
O=C(O)c1ccc2c(c1)C(=O)N(Cc1ccc3c(c1)OCO3)C2=O	0%
OCCOCCOc1ccccc1OCCOCCO	-19%
CC(=O)OCCOc1nc(NC(C)C)nc(NC(C)C)n1	?
COc1ccc(N2CCN(C(=O)CSc3ccc(C)cc3)CC2)cc1	-5%
O=C(NC(=S)NNC(=O)c1ccccc1O)c1cccc([N+](=O)[O-])c1	-23%
COCCN(CCOC)S(=O)(=O)NC[C@H]1O[C@@H](n2cnc3c(N)ncnc32)[C@H](O)[C@@H]1O	5%
COC(=O)c1ccccc1NC(=O)c1ccnn1C	-2%
CC(=O)c1c(C)n(-c2cccc(Cl)c2)c2ccc(O)cc12	9%
Cc1cccc(C=Nc2ccccc2C(N)=O)c1	-3%
COc1ccc(-c2nnn(CC(=O)N3CCOCC3)n2)cc1	-2%
O=C(Nc1c2c(nn1-c1ccc(Cl)cc1)CS(=O)(=O)C2)c1cccc(F)c1	2%
COc1ccc(CNC(=O)C2CC(=O)N(C3CCCC3)C2)cc1 (stereo unspecified)	-4%
Cc1cc(C)c(NC(=O)CSc2nccn2Cc2ccco2)c(C)c1	12%
CC(C)CCOc1ccc(C(=O)N2CCN(c3ncccn3)CC2)cc1	-2%
C=C(C)CSc1nnc2n(C)c(=O)c3c4c(sc3n12)CCC4	14%
O=C(Nc1ccccc1N1CCN(C(=O)c2ccccc2)CC1)c1ccc([N+](=O)[O-])o1	8%
CCOC(=O)Cn1c(=O)oc2cc(S(=O)(=O)NCc3ccc(F)cc3)ccc21	8%
CCCc1c(C(=O)N/N=C/c2ccc(OC)c(OCc3ccccc3)c2)nnn1-c1nonc1N	18%
COc1ccc(CC(=O)N2CCc3cc(OC)c(OC)cc3C2COc2ccc(F)cc2)cc1 (stereo unspecified)	0%
C=CCSc1nnc(CC(OC)OC)n1-c1ccccc1	-15%
Nc1nc2nccc(-c3ccc(Cl)cc3)n2n1	9%
CN(NS(=O)(=O)c1ccc(Cl)cc1)c1nc(C(F)(F)F)nc2ccccc12	10%
N#Cc1c2c(c(-c3ccco3)[nH]c1=O)CCCC2	7%
CC1=C(C(=O)Nc2ccc(C)cc2C)C(c2ccc[nH]2)n2ncnc2N1 (stereo unspecified)	0%
CCOC(=O)c1c(NC(=O)c2cccc(N3C(=O)CCC3=O)c2)sc2c1CCN(CC)C2	11%
CCc1cccc(C)c1NC(=O)COC(=O)C1CCN(S(=O)(=O)c2ccccc2)CC1	4%
O=C(Nc1ncccn1)c1cc(-c2cccc(Br)c2)nc2ccccc12	?
COc1ccc2c(c1)CCc1c(C(=O)NCCCn3ccnc3)noc1-2	12%
COc1cc(CN2CCN(S(=O)(=O)c3ccc(F)cc3)CC2)cc(OC)c1OC	2%&1%

An excerpt from above in order of their number in VDR inh, largest number first.
Molecule	VDR inh
COc1ccc(OC)c(NC(=O)c2c3c(nc4ccccc24)CCC3)c1	11%
CCCCNC(=O)CCSc1ccc(C)cc1	-4%
CC(C)CCSc1nc2c(c(=O)[nH]c(=O)n2C)n1CCCc1ccccc1	-10%

Source: PubChem BioAssay
